# VDR inh: Inhibitors of the vitamin D receptor (VDR): qHTS; hit rate 0.93% among 400,000; Potency, µM, inactives show max response, negative = inhibition, most hits filed as inhibitors; VDR-SRC2-3 peptide fluorescence polarization, 2 h; Vitamin D3 receptor (Homo sapiens), P11473; active = well fitted inhibition curve with a large enough effect; inconclusive = small, poorly fitted or top-dose-only effect, or another doubt; inactive = no such curve, though single readings can be large or run the other way; also: series mostly up to about 120 µM
# Target sequence (P11473 whole entry, looked up): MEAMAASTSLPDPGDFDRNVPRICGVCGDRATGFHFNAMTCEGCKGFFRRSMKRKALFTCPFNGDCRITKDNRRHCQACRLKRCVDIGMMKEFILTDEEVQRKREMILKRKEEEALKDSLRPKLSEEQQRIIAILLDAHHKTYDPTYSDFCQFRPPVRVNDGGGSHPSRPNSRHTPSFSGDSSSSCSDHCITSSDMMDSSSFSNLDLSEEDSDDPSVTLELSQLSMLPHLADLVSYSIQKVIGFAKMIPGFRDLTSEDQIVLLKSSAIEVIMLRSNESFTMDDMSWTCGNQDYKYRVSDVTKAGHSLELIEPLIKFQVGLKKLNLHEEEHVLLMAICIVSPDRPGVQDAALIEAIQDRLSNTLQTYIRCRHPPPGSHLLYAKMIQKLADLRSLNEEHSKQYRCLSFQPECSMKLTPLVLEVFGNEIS
#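 The screen uses fluorescence polarization to detect compounds that interfere with recruitment of the SRC2-3 coactivator peptide to VDR; plates are read after 2 h at room temperature.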
# An asterisk follows results filed as active; ? = inconclusive. % is scaled to controls: 0 for no effect and ±100 for the full control effect; potency is read from the fitted curve at half-maximal effect. Only part of the results is shown; the hit share may differ from the screen's.
SMILES,VDR inh
C=C(C)C(=O)Nc1cccc(C2=NOC3(C2)C[C@H](C(N)=O)N(C(=O)c2ccccc2)C3)c1 (stereo partly drawn),-12.8%
CC1=C(C(=O)Nc2ccc(Cl)cc2)C(CC(C)C)n2nc(SCc3ccccc3C)nc2N1 (stereo not drawn),12.8%
Cc1ccc(S(=O)(=O)Nc2ccccc2)cc1[N+](=O)[O-],-22.0%
C=CCNc1nc2c3ccccc3n(C(C)=O)c2s1,-29.0%
Cc1ccccc1NC(=O)c1sc(Cl)nc1-c1ccccc1,-15.6%
Cc1nn(CC(=O)NC(=O)c2ccccc2)c(C)c1[N+](=O)[O-],9.5%
Cc1ccc(-c2nc3scc(CCNC(=O)Cc4ccc(Cl)cc4)n3n2)cc1,14.0%
CN(CC(=O)NCCCc1ccccc1)S(=O)(=O)c1ccc(Br)cc1,15.5%
CCOC(=O)C(NC(=O)c1ccccc1Cl)(Nc1ccc(C(F)(F)F)cc1)C(F)(F)F (stereo not drawn),-2.4%
O=C1N(c2ccccc2)C2CS(=O)(=O)CC2N1c1ccc(Br)cc1 (stereo not drawn),20.9%
O=C(CCC1N=C2c3ccccc3N=C(SCc3ccccc3Cl)N2C1=O)NCc1ccco1 (stereo not drawn),-4.2%
COc1cc(CCNC(C)=O)c(C(=O)/C=C/c2cccc(OC)c2OC)cc1OC,-5.8%
C(=NN=C1c2ccccc2-c2ccccc21)c1c[nH]c2ccccc12,-12.2%
Cn1c(=O)oc2cc(NC(=O)CCl)ccc21,-8.0%
Fc1ccccc1OCCSc1nnnn1-c1ccccc1,-10.8%
O=C(CCc1nc2ccccc2c(=O)[nH]1)OCc1cccc(C(F)(F)F)c1,20.7%
CC1CC(C)CN(C(=O)C(C)N(C)CC(=O)Nc2ccc(Cl)cc2)C1 (stereo not drawn),-11.8%
Cc1ccc(C2=N/C(=C\N(C)C)C(=O)O2)cc1,10.0%
COc1ccc(NC(=O)C2CC2)cc1OC1CCCC1,-5.8%
Cc1nc(NC(=O)COC(=O)CNC(=O)c2ccco2)c(Cl)cc1Cl,-6.3%
Cc1ccc(S(=O)(=O)N2CCOC2CNC(=O)C(=O)NCc2ccco2)cc1 (stereo not drawn),-12.0%
O=C(c1cccs1)N1CCN(C/C=C/c2ccccc2)CC1,-1.1%
CCN1C(=O)C(=O)c2cc(C)ccc21,-3.4%
Cc1cc(C(=O)N2CCCCCC2)cs1,8.2%
CN(C)Cc1cccc(-c2ccccc2)c1O,8.8%

# Some values from the results shown:
# VDR inh with CC1=C(C(=O)Nc2ccc(Cl)cc2)C(CC(C)C)n2nc(SCc3ccccc3C)nc2N1 (stereo not drawn) = 12.8%
# VDR inh with COc1cc(CCNC(C)=O)c(C(=O)/C=C/c2cccc(OC)c2OC)cc1OC = -5.8%

# Further structures.
SMILES,VDR inh
Cc1nc2sc(C(=O)OC(C)C)c(N)c2c(C)c1C,-17.4%
COc1cccc(-c2c(-c3cc(OC)cc(OC)c3)n(C)c3ccc(-c4cnc(N5CCOCC5)nc4)cc23)c1,-5.7%
C=C1C(=O)O[C@H]2[C@H]1[C@H](OC(=O)/C(C)=C\C)C[C@]1(CO1)[C@@H]1[C@H](OC(C)=O)C=C(C)[C@]21O,?
O=C(CC1C(=O)NCCN1Cc1ccc(F)cc1Cl)NCc1ccon1 (stereo not drawn),14.6%
COc1ccc(-n2cnnc2SCC(=O)Nc2ccccc2F)cc1,11.6%
CCOC(=O)N1CCN(C(=O)c2cc3c(=O)[nH]c4ccccc4c3s2)CC1,-6.2%
CC(C)N(Cc1ccccc1)C(=S)NCc1ccccc1,-15.9%
O=C(CSc1ncccn1)N/N=C/c1ccccc1[N+](=O)[O-],-5.8%
COc1ccccc1-c1cn(S(=O)(=O)c2ccc(C)cc2)nc1N,27.6%
CCC(=O)Nc1nonc1-c1nc2ccccc2n1Cc1ccccc1,6.2%
CCCn1nc(C(=O)OCC(=O)Nc2ccc(C(N)=O)cc2)c2ccccc2c1=O,-6.0%
CCc1ccc(NC(=O)C(C)n2nnc3sc(-c4ccccc4)cc3c2=O)cc1 (stereo not drawn),-23.6%
COc1ccccc1CNc1ncnc2ccc(-c3ccccc3OC)cc12,-2.5%
Cc1cccc(N2CCN(C(c3ccncc3)c3nnnn3C(C)(C)C)CC2)c1C (stereo not drawn),-3.6%
CN(Cc1cccnc1)C(=O)Cc1ccc(NS(=O)(=O)c2cccc(C(F)(F)F)c2)cc1,3.9%
CCOC(=O)N1CCC(N2C(=O)c3ccccc3C2Nc2ccccc2)CC1 (stereo not drawn),1.0%
Cc1cc(C)cc(OC(=O)C23CCC(C)(C(=O)O2)C3(C)C)c1 (stereo not drawn),2.0%
O=C(NCCO)C(=O)NCC1OCCCN1S(=O)(=O)c1cc(F)ccc1F (stereo not drawn),2.2%
Nc1nc2nonc2nc1N,-3.1%
CCS(=O)(=O)c1ncc(N(Cc2ccccc2)Cc2ccco2)c(C(=O)Nc2ccccc2C)n1,3.6%
O=c1/c(=C\c2ccc3c(c2)OCO3)sc2n1CCCN=2,-7.7%
O=C(Nc1ccccc1N1CCCCC1)c1ccc(-c2ccc(Cl)cc2)o1,-18.3%
CCN(CC)C(=O)CSc1nc2ccccc2c(=O)n1CCC(=O)NCCc1ccc(OC)c(OC)c1,13.9%
O=C(NC(Cc1ccccc1)C(=O)O)/C(=C\c1ccc(F)cc1)NC(=O)c1ccco1 (stereo not drawn),6.0%
Cc1cccc(NC(=O)CNC(=O)c2cccs2)n1,4.9%

# Continued.
SMILES,VDR inh
CCN(CC(=O)Nc1ccc(NC(C)=O)cc1)C(=O)/C=C/c1ccc(S(=O)(=O)N2CCCCCC2)cc1,-23.6%
COCCNC(=O)C1CCN(S(=O)(=O)c2ccc3c(c2)CCCN3C(C)=O)CC1,-3.5%
COc1ccc(/C=C2\SC(=O)N(CCC(=O)Nc3ccccc3)C2=O)cc1OC,11.5%
Nc1nnc(-c2ccccc2Cl)s1,-7.4%
Cn1nnnc1SCCCNCc1cccc(OCc2ccc(F)cc2)c1,15.7%
COc1ccc(OCCC(=O)OCC(=O)NC(=O)NC(C)(C)C)cc1,3.9%
O=C(CSc1ncnc2scc(-c3ccc(Cl)cc3)c12)NCc1ccc2c(c1)OCO2,24.1%
CC(=O)NC12CC3CC(C1)CC(C(=O)NCc1ccc(C)cc1)(C3)C2,26.0%
Cn1cccc1C(=O)OCC(=O)c1cc2ccccc2o1,-2.1%
Cc1cccc(CNc2cc(-c3ccc(C(=O)N(C)C)cc3)ncn2)c1,6.6%
Cc1cc(C)cc(-n2c(C)cc(C(=S)N3CCOCC3)c2C)c1,-22.4%
O=C(NC(=S)NCc1ccccc1)c1ccccc1Br,5.9%
CSC(=NC#N)N1CCN(c2ccccn2)CC1,6.5%
COC(C(=O)NC1CCCCCCC1)c1ccccc1 (stereo not drawn),?
CC(OC(=O)Cc1n[nH]c(=O)c2ccccc12)C(=O)Nc1cc(Cl)cc(Cl)c1 (stereo not drawn),0.8%
COc1cc(C2C(C#N)=C(N)Oc3cc(C)n(CC4CCCO4)c(=O)c32)cc2c1OCO2 (stereo not drawn),7.0%
COc1ccc(-c2nnc(SCC(=O)Nc3sc4c(c3C#N)CCC4)n2CC2CCCO2)cc1 (stereo not drawn),-5.3%
N#CCCn1c(=O)c(CCc2ccccc2)nc2cnc(Nc3ccccc3)nc21,-0.1%
O=C(Cc1ccc(S(=O)(=O)N2CCOCC2)s1)NNC(=O)c1ccccc1Cl,0.9%
O=[N+]([O-])c1ccc(CN2CCOCCOCCN(Cc3ccc([N+](=O)[O-])cc3)CCOCC2)cc1,-26.3%
Cc1nn(-c2ccccc2)c(Cl)c1C(=O)OC(C)C(=O)NC(=O)NC1CCCCC1 (stereo not drawn),12.0%
CCC(C)(C)C1CCC2(CC1)NC(=O)N(CC(=O)NCCc1c[nH]c3ccccc13)C2=O (stereo not drawn),-9.1%
COc1ccc(C(C(=O)NCc2ccccc2)N(C(=O)c2snc(C(N)=O)c2N)C2CCCC2)cc1O (stereo not drawn),-6.8%
CCn1c(SCC(=O)c2ccc3c(c2)OCCO3)nnc1-c1ccco1,-9.7%
COc1ccc2oc(C(=O)OC/C(O)=C(\C#N)c3nc4ccccc4[nH]3)c(C)c2c1,-13.9%

# Three compounds already listed, sorted by the number in VDR inh, high to low.
smiles	VDR inh
Cc1cccc(CNc2cc(-c3ccc(C(=O)N(C)C)cc3)ncn2)c1	6.6%
CSC(=NC#N)N1CCN(c2ccccn2)CC1	6.5%
COc1ccc(OCCC(=O)OCC(=O)NC(=O)NC(C)(C)C)cc1	3.9%

# Following part.
SMILES,VDR inh
CC(NC(=O)CSc1nnc(-c2cc3cc(Cl)ccc3o2)n1C)c1ccccc1 (stereo not drawn),1.7%
Cc1nc(N)ncc1Sc1ccccc1,8.6%
N/C(Cc1ccc([N+](=O)[O-])cc1)=N\OC(=O)C1CCCCC1,4.6%
CC1=CC(C)(C)N(C(=O)CSc2nccn2C)c2cc(C)ccc21,-11.5%
Clc1ccc(CN2CCN(c3ncccn3)CC2)c(Cl)c1,6.9%
O=C(Cn1c(=O)n(-c2ccc(F)cc2)c(=O)c2sccc21)N1CCCC1,-2.0%
CCn1c(-c2ccccc2Cl)nn(CC(=O)Nc2ccc(OC)cc2)c1=S,-22.9%
CC(C)N(CCC(=O)c1ccc2ccccc2c1)Cc1ccccc1,5.01µM*
Cc1cc(C)c2c(=O)[nH]c(SCC(=O)N3CCOCC3)nc2n1,1.5%
CCc1ccccc1NC(=O)NCc1ccccn1,13.8%
CC1(NC(=O)c2cccc(S(=O)(=O)N3CCCc4ccccc43)c2)CCS(=O)(=O)C1 (stereo not drawn),-6.3%
Cc1cc2cc(CN(Cc3nnnn3C3CCCCC3)CC3CCCO3)c(=O)[nH]c2cc1C (stereo not drawn),-2.5%
Oc1ccccc1CNCc1ccccc1,8.7%
Cn1c(=O)[nH]c(=O)c2[nH]c(CO)nc21,4.6%
CC[C@@H]1CCCCc2ccccc2[C@H](C(=O)C[C@@H](O)CC(C)=O)OC1=O,-17.5%
Cc1ccccc1CSCC(=O)Nc1ccccc1F,-8.0%
O=C(NN1CCOCC1)c1ccc(S(=O)(=O)N2CCCCC2)cc1,-20.2%
COc1ccc2ccc3cccc[n+]3c2c1,8.8%
CN1CCC(N(C)C(=O)c2ccc(Cl)c(S(=O)(=O)N3CCc4ccccc43)c2)CC1,22.7%
O=C(Nc1ccc(F)cc1F)NC1CCCCCCC1,-0.6%
CN(C)C(CNC(=O)c1ccc(Br)cc1)c1ccco1 (stereo not drawn),-3.7%
C/C(CC(=O)c1ccccc1)=N\NC(=O)CC#N,3.1%
Cc1cc(C)nc(N/N=C/c2ccc(N3CCOCC3)cc2)n1,2.8%
Cc1ccc(-n2c(-c3ccccc3)nsc2=NC#N)cc1,?
c1ccc(-c2oc3ncnc(NCCCn4ccnc4)c3c2-c2ccccc2)cc1,2.6%

# Compounds shown so far containing a tert-butyl group (two):
SMILES,VDR inh
Cc1cccc(N2CCN(C(c3ccncc3)c3nnnn3C(C)(C)C)CC2)c1C (stereo not drawn),-3.6%
COc1ccc(OCCC(=O)OCC(=O)NC(=O)NC(C)(C)C)cc1,3.9%

# Other entries follow.
SMILES,VDR inh
O=C(C1CCN(S(=O)(=O)N2CCCCC2)CC1)N1CCCCC1,-6.9%
CN(C)S(=O)(=O)n1cc(/C=C(\NC(=O)c2ccccc2)C(=O)NCCCN2CCOCC2)c2ccccc21,14.7%
CCc1ccccc1S(=O)(=O)Cc1ccc(C(=O)NCc2ccc3c(c2)OCO3)o1,-2.3%
c1ccc(-c2nc(-c3cccnc3)cs2)cc1,7.6%
COc1ccc(CCNC(=O)C2CC(c3ccccc3[N+](=O)[O-])=NO2)cc1 (stereo not drawn),-0.6%
Oc1[nH]c(N=C2N=c3ccccc3=N2)c2ccccc12,-1.3%
Cc1ccc(S(=O)(=O)/N=C2\C(=O)c3ccccc3C([O-])=C2n2cc[n+](CCC(C)C)c2)cc1,-2.8%
Cc1cccc(OCc2nnc(SCC(=O)Nc3ccc(C)cc3C)o2)c1,1.5%
COc1cccc(CN2CC(C(=O)NCCOc3cccnc3)CCC2=O)c1 (stereo not drawn),-26.5%
CN(CC(=O)Nc1cccc(F)c1)CC(=O)N1CCc2ccccc21,-11.6%
COC(=O)C1CCN(C(=O)COC(=O)c2oc3ccccc3c2C)CC1,8.4%
Cc1cc(C)c(S(=O)(=O)Nc2cccc(/C=C/C(=O)O)c2)c(C)c1,1.9%
COC(C[C@@H]1O[C@@H]1C(=O)[C@H](C)OCc1ccccc1)OC,-7.6%
COc1ccc(NC(=S)NC2CCS(=O)(=O)C2)cc1 (stereo not drawn),14.0%
O=C(N/N=C/c1cc(O)ccc1[N+](=O)[O-])c1ccc2c(c1)OCCO2,-11.5%
Cc1ccc(-c2c3c([nH]c(=S)c2C#N)CCCC3)o1,?
O=C(Nc1ccccc1NC(=O)NC1CCCCC1)NC1CCCCC1,-0.1%
CCOC(=O)c1c(CN2CCCCC2)n(C)c2cc(Br)c(O)c(CN(C)C)c12,-7.0%
COc1ccc(C(C)(C)C)cc1NC(=O)Nc1ccc2c(c1)OCO2,0.9%
O=C(O)CC(CNS(=O)(=O)c1cccc2nsnc12)c1ccccc1 (stereo not drawn),-5.4%
CCCCOC(=O)c1ccc(NC(=O)Cn2nnc3sc4c(c3c2=O)CCCC4)cc1,-0.8%
CC(=O)c1cccc(NS(=O)(=O)c2cc(OCC(N)=O)c(C)cc2Cl)c1,16.5%
O=C(CN(Cc1ccc(F)cc1)C(=O)Cn1nnc2ccccc21)NCC1CCCO1 (stereo not drawn),1.9%
O=C(NCC1COc2ccccc2O1)C1CCN(S(=O)(=O)c2ccc(Cl)cc2)CC1 (stereo not drawn),-14.8%
COCCN(C(=O)c1cc(-c2ccncc2)nc2ccccc12)c1c(N)n(CC(C)C)c(=O)[nH]c1=O,5.3%

# Filtered by structure: the entries above with bromine (five)
SMILES,VDR inh
CN(CC(=O)NCCCc1ccccc1)S(=O)(=O)c1ccc(Br)cc1,15.5%
O=C1N(c2ccccc2)C2CS(=O)(=O)CC2N1c1ccc(Br)cc1 (stereo not drawn),20.9%
O=C(NC(=S)NCc1ccccc1)c1ccccc1Br,5.9%
CN(C)C(CNC(=O)c1ccc(Br)cc1)c1ccco1 (stereo not drawn),-3.7%
CCOC(=O)c1c(CN2CCCCC2)n(C)c2cc(Br)c(O)c(CN(C)C)c12,-7.0%
